High-throughput results: PubChem, National Center for Advancing Translational Sciences (NCATS)
VACV mCherry inh: vaccinia inhibition (mCherry reporter); Vaccinia virus mCherry reporter infection, fluorescence; about a quarter of the inactives have no number; Potency, µM (doses to about 36.5 µM), without a hit: top-dose activity change, negative = inhibition, hits mostly inhibitors; 310,000 compounds, 0.63% hits; AID 720579; active = well fitted inhibition curve with a large enough effect; inconclusive = small, poorly fitted or top-dose-only effect; inactive = no such curve, though single readings can be large or run the other way; tested in A549 cells; also: nearly all actives have a fitted effect of over 35% in size; inactives centre near -10
VACV Venus inh: inhibitors of vaccinia virus (Venus reporter); 330,000 compounds, 0.46% hits; Vaccinia virus Venus reporter expression, fluorescence; Potency, µM (doses to about 36.5 µM), without a hit: at the highest dose activity change, negative = inhibition, usual class: inhibitors; AID 720580; active means well fitted inhibition curve with a large enough effect; inconclusive means small, poorly fitted or top-dose-only effect; inactive means no such curve, though single readings can be large or run the other way; tested in A549 cells; also: nearly all actives have a fitted effect of over 30% in size; inactives centre near -10
The depositor's hits bear a star; i = inactive; ? = inconclusive; . = no result given; & = joins results of further samples; [ ] = another dose, or the depositor's remark. % is scaled to controls: 0 for no effect and ±100 for the full control effect; potency is read from the fitted curve at half-maximal effect.

SMILES	VACV mCherry inh	VACV Venus inh
COc1ccccc1N1CCN(S(=O)(=O)CCNC(=O)C(c2ccccc2)c2ccccc2)CC1	-18.8%	-18.8%
COc1ccc(COC(=O)c2ccc(Br)c(S(=O)(=O)N3CCOCC3)c2)cc1F	i	-17.6%
COc1ccc(NC(=O)CSC2=Nc3ccccc3C3=NC(CC(=O)NCc4ccccc4OC)C(=O)N23)cc1Cl (centres undefined)	-6.8%	-2.2%
CC(C)CC(N)c1csc(Nc2ccc(C(=O)c3ccccc3)cc2)n1 (centres undefined)	-17.5%	?
C=CCc1c(C)nc(SC)nc1Nc1ccc(C(C)=O)cc1	.	?
Cc1ccc2nc(-c3ccc(NC(=O)CSc4nccc(=O)[nH]4)cc3)sc2c1	i	-1.7%
NC(=O)COC(=O)[C@@H]1CC(O)CN1S(=O)(=O)c1ccc2c(c1)OCCO2 (some centres undefined)	i	-8.4%
CC1(C)CC(=O)C(N=Nc2ccc(Br)cc2)=C(O)C1	-3.6%	-9.9%
CC1CCCC(NC(=O)CCC(=O)c2ccc(F)cc2)C1C (centres undefined)	-11.1%	4.5%
Cc1c(C(=O)N2CCC(Cc3ccccc3)CC2)sc2ncnc(NCc3ccccn3)c12	-24.2%	-16.4%
O=c1ccn([C@@H]2O[C@H](CNCc3ccc(-n4cccn4)cc3)[C@@H](O)[C@H]2O)c(=O)[nH]1	-16.5%	-2.0%
O=[N+]([O-])c1nn(-c2ccc3c(c2)OCCO3)n(O)c1=NCc1ccc(F)cc1Cl	?	-4.1%
CC(=O)NC(CC(=O)NC12CC3CC(CC(C3)C1)C2)c1ccccc1 (centres undefined)	-11.7%	-9.0%
NC(=O)c1oc2ccccc2c1NC(=O)C1COc2ccccc2O1 (centres undefined)	-15.5%	20.7%
CN(C)CCCCCCNc1nccc(N2CCN(C)CC2)n1	-17.4%	-17.6%
CN(C)C(=O)c1ccc(-c2nnc(OCc3nc4ccccc4n3C)c3ccccc23)cc1	0.8%	0.5%
O=C(CCSc1ccc(Cl)cc1)c1cccs1	i	-18.8%
O=S(=O)(CCc1nc2ccccc2[nH]1)c1ccc(Cl)cc1	?	1.5%
O=C(Cc1ccc(Cl)cc1)Nc1ccc(Br)cc1	-9.3%	-11.6%
CN(C)/C=N/c1sc2c(c1C#N)CCCC2	7.1%	-8.1%
CN(C)c1ccc(C(=O)OCC(=O)Nc2cccc(S(=O)(=O)N3CCCC3)c2)cc1	?	-28.1%
Cc1cccc2c1c1ccc3c(c1n2C)C(=O)C=CC3=O	-29.6%	?
CCOc1ccc(C2C(C(=O)c3ccco3)=C(O)C(=O)N2Cc2cccnc2)cc1 (centres undefined)	-13.2%	-12.2%
CCN1C=C(Cc2ccc(OC)cc2)C2=C(C1)C(c1ccc(OC)cc1)C(C#N)=C(N)O2 (centres undefined)	.	-5.9%
CC1(C)CC(=O)C=C(c2ccc(-c3ccc(OC(F)(F)F)cc3)cc2)C1=O	-15.8%	-28.2%
Cn1c(SCC(=O)NCc2ccco2)nnc1C1CCCC1	i	7.5%
COc1ccc(C2=CC3=C(Br)C(=O)C(C)(OC(=O)C4CCCC4)C(=O)C3=CO2)cc1 (centres undefined)	i	-27.2%
CCCCc1nn2c(=O)cc(COC(=O)c3cccc(Cl)c3)nc2s1	6.7%	-0.7%
CC(C)(C)c1ccc(OCCC(=O)NCC(c2cccs2)N2CCOCC2)cc1 (centres undefined)	-13.1%	-9.3%
CCN(CC(=O)Nc1ccc(NC(C)=O)cc1)C(=O)Cc1coc2cc(C)c(C)cc12	-27.4%	-8.6%
COc1ccc(C2NC(=O)c3sc4nc(C)c(C(C)=O)c(-c5ccc(Cl)cc5)c4c3N2)cc1 (centres undefined)	.	-15.8%
COc1cccc(C(=O)Nc2ccc(NC(=O)C3CC3)cn2)c1	-9.5%	-4.6%
COc1cc(C(O)c2nc(-c3ccncc3)cs2)ccc1F (centres undefined)	9.9%	-13.5%
CCOc1ccc(CNS(=O)(=O)c2cc3c(cc2C)NC(=O)CO3)cc1	-18.2%	-11.7%
CCNc1nc(NCC)n2c(SCC(=O)Nc3ccc(NC(C)=O)cc3)nnc2n1	-10.5%	-4.7%
CCCCC12CN3CC(C)(CN(C1)C3c1cc(Br)ccc1O)C2=O (centres undefined)	-4.6%	-9.8%
CCOC(=O)N1CCc2c(sc(NCc3cccc(F)c3)c2C(=O)Nc2ccc(OC)cc2)C1	-5.2%[7.34 µM]	-2.7%[7.34 µM]
Cc1oc(-c2ccc(Cl)cc2)nc1CN1CCCC(C(=O)NCCCN2CCCC2=O)C1 (centres undefined)	-21.0%	-13.0%
C=CCNS(=O)(=O)c1ccc2c(c1)n(C)c(=O)n2C	i	-10.6%
Cc1cc2nc3c(=O)[nH]c(=O)[nH]c3nc2c([N+](=O)[O-])c1N	i	0.0%

A draw from above in order of SMILES length, descending.
SMILES	VACV mCherry inh	VACV Venus inh
CCN1C=C(Cc2ccc(OC)cc2)C2=C(C1)C(c1ccc(OC)cc1)C(C#N)=C(N)O2 (centres undefined)	.	-5.9%
CCOc1ccc(C2C(C(=O)c3ccco3)=C(O)C(=O)N2Cc2cccnc2)cc1 (centres undefined)	-13.2%	-12.2%
CC(C)(C)c1ccc(OCCC(=O)NCC(c2cccs2)N2CCOCC2)cc1 (centres undefined)	-13.1%	-9.3%
CCCCc1nn2c(=O)cc(COC(=O)c3cccc(Cl)c3)nc2s1	6.7%	-0.7%
C=CCNS(=O)(=O)c1ccc2c(c1)n(C)c(=O)n2C	i	-10.6%
COc1cc(C(O)c2nc(-c3ccncc3)cs2)ccc1F (centres undefined)	9.9%	-13.5%

Further structures follow:
SMILES	VACV mCherry inh	VACV Venus inh
CCn1ccc(-c2ccccc2)c(C#N)c1=O	-15.4%	-9.1%
Cc1ccc2nc3c(cc(C(=O)NCCc4ccccc4)c(=N)n3CCCN3CCOCC3)c(=O)n2c1	-8.9%	-3.3%
COc1ccc(-c2c([C@H]3[C@@H]4C=CCC[C@@]4(C)C(=O)N3Cc3ccccc3)ccc3ccccc23)cc1OC	?	?
O=C(N/N=C/C(Cl)=C/c1ccccc1)c1cnccn1	-19.5%	-15.8%
CCc1cccc(C)c1NC(=O)CN1C(=O)c2ccccc2Sc2ncccc21	-11.8%	-9.5%
COC(=O)c1ccccc1NC(=O)CC#N	.	?
Cc1cccc2cc(CN(CC3CCCO3)C(=O)c3ccccc3F)c(N(C)C)nc12 (centres undefined)	-5.7%	17.1%
COC(=O)C1=C(c2cccc(OCc3ccccc3)c2)C[C@@H]2CC[C@H]1N2C(=O)NCc1cc(C)oc1C(F)(F)F	?	?
CC1(C)CC(Cc2ccc(Cl)nc2)N(C(=O)OC(C)(C)C)C1 (centres undefined)	-10.4%	-15.7%
O=C(c1ccc2c(c1)OCO2)N1CCN(S(=O)(=O)N2CCCCC2)CC1	-0.3%	1.7%
CC1CCCCN1C(=O)CSc1nc2ccccc2nc1Cc1ccccc1 (centres undefined)	-3.9%	-19.2%
Cc1ccc(F)c(CNC(=O)C2(C)CCCN2C(=O)C(C)C)c1F (centres undefined)	i	10.0%
COc1ccc(N2CCN(c3ncnc4c3nc3n4CCCCC3)CC2)cc1	?	?
NC(=O)C(CCC(=O)c1ccc(Br)cc1)S(=O)(=O)c1ccccc1 (centres undefined)	-0.1%	-10.0%
CC(=O)Nc1ccc2nc(CN3CCN(CC(C)C)C(CCO)C3)ccc2c1 (centres undefined)	-1.2%	6.2%
CCC(NS(=O)(=O)c1ccc(OC)cc1)C(=O)NCCc1ccccc1 (centres undefined)	-20.3%	-12.5%
COC(=O)c1ccccc1NC(=O)[C@H]1O[C@@H]2OC(C)(C)O[C@@H]2[C@H]2OC(C)(C)O[C@H]21	-8.7%	-10.4%
COc1cc(O)cc(OC)c1OC	i	0.0%
CCc1ccc(NC(=O)CC2C(=O)N(c3cccc(C)c3)C(=O)N2Cc2ccc(F)cc2)cc1 (centres undefined)	-16.6%	-16.1%
CC(C)CCNC(=O)c1ccc(OC2CCN(S(=O)(=O)N(C)C)CC2)cc1	-11.5%	-7.1%
CC(C)(C)C1CCC(OC(=O)C[N+]2(C)CCCCC2)CC1 (centres undefined)	i	-4.5%
O=C(N/N=C/c1ccc(Cl)c([N+](=O)[O-])c1)c1ccc2c(c1)OCCO2	-15.6%	-7.7%
CC(=O)C1=C(C)OC(N)=C(C#N)C1c1ccncc1 (centres undefined)	.	-12.9%
Cn1ccsc1=NC(=O)c1cccc(C#N)c1	-0.7%	-2.9%
N#C/C(=C\c1ccc(-c2ccccc2C(=O)O)o1)c1nc2ccccc2[nH]1	0.1%	-9.8%&-15.6%
CN(C(=S)Nc1cccnc1)c1ccc(O)cc1	-4.1%	4.5%
COC(=O)c1nonc1NCn1nnc2ccccc21	.	-9.7%
O=C1COc2cc(S(=O)(=O)NCc3ccco3)c(Cl)cc2N1	-10.1%	-1.7%
Cc1cc(C)cc(N2C(=O)CC(n3ccnc3)C2=O)c1 (centres undefined)	.	-25.8%
COC(=O)c1cc(C(=O)OCC(=O)NC2CCS(=O)(=O)C2)cc([N+](=O)[O-])c1 (centres undefined)	-5.8%	3.0%
CCCOc1ccc(-c2c(C(=O)N/N=C/c3ccccc3OCC)nnn2-c2nonc2N)cc1	?	-22.4%
O=C(O)CC1SC(=Nc2cccc(C(F)(F)F)c2)NC1=O (centres undefined)	-4.1%	-5.8%
O=c1c([N+](=O)[O-])c(N2CCOCC2)c2ccccc2n1Cc1ccccc1	-22.4%	-13.3%
CSc1nc(C(=O)N2CCc3c(cnc(C)c3CNC(=O)c3ccc4c(c3)OCO4)C2)cs1	-15.2%	-3.3%
Cc1nc(-c2ccc(O)c(O)c2)cs1	i	-7.3%
CCCCCC1CC(CC(=O)O)C(=O)O1 (centres undefined)	-10.7%	-6.2%
O=C(c1ccc2c(c1)N(Cc1ccc(Cl)cc1)C(=O)c1ccccc1S2(=O)=O)N1CCc2ccccc21	-4.8%	-3.7%
Cc1ccc(C2NC(=S)NC3=C2C(=O)CC(C)(C)C3)cc1 (centres undefined)	-19.0%	-15.4%
Cc1nn(-c2cccc(C(F)(F)F)c2)c(=O)c2ccccc12	-4.1%	-17.5%
COc1ccc(C)cc1N(CC(=O)Nc1cccnc1)S(=O)(=O)c1ccc(C)cc1	-16.0%	-18.8%
O=S(=O)(Nc1cccc2ccccc12)c1cccs1	-15.4%	-12.1%
COc1cccc(OC)c1C(=O)Nc1cccc(-c2cn3ccsc3n2)c1	-13.3%[7.34 µM]	-8.4%[7.34 µM]
Cc1cccc(C(=O)N[C@H]2CC[C@@H](n3cc(C(=O)N4CCCC4)nn3)CC2)c1	-8.5%	3.3%
COc1cc(C(=O)NC2CCN(C)CC2)ccc1Nc1ncc2c(n1)N(CCc1ccccc1)CCC(=O)N2C	?	?
COc1ccc(-n2cc(-c3ccccc3)c3c(NN4CCOCC4)ncnc32)cc1	-29.3%	9.5%
CC(NC(=O)c1ccc(CS(C)(=O)=O)cc1)c1ccc(-n2ccnc2)cc1 (centres undefined)	-10.1%	0.5%
Cc1cccc2c(=O)n3c(nc12)CCCCC3	i	-11.5%
CCc1ccc(-c2csc(NC(=O)c3cccnc3)n2)cc1	-13.8%	-20.0%
Cc1nc(CCNS(=O)(=O)c2cccs2)cs1	-11.1%	-2.1%
O=C(CSc1nnnn1-c1ccccc1)Nc1nc(-c2ccccc2)ns1	.	-21.3%
Cc1nn(Cc2c(F)c(F)c(F)c(F)c2F)c(C)c1NC(=O)c1nn(C)c(C)c1Br	?	-24.4%
CCOC(CNC(=O)Cc1c(C)nc2c(-c3ccccc3)c(C)nn2c1C)OCC	i	-19.4%
CC1=C(C(=O)NCc2ccccc2)C(c2cccs2)n2ncnc2N1 (centres undefined)	.	-15.3%
Nc1ccc2c(c1)C(=NO)c1cc([N+](=O)[O-])ccc1-2	?	199.1%[activator]
Cc1ccc(C23CC4CC(CC(C(N)=O)(C4)C2)C3)cc1	-25.2%	-16.0%
CCCCS(=O)(=O)Nc1ccc(N2CCOCC2)c(S(=O)(=O)N2CCOCC2)c1	-0.4%	-2.5%
COc1ccc(NC(=O)CN2C(=O)CSc3ccc(S(=O)(=O)N(C)C)cc32)cc1Cl	-13.4%	-6.7%
COc1cccc(NC(=O)Cn2c(=O)n(Cc3ccco3)c(=O)c3cc(OC)c(OC)cc32)c1	1.9%	-3.0%
OC(c1ccccc1)(c1ccccc1)C1CCN(C(=S)NC2CCCC2)CC1	i	-12.7%
Cc1cc(OCc2nc(N)nc(N)c2-c2ccc(Cl)c(Cl)c2)ccc1[N+](=O)[O-]	0.891µM*	1µM*
Additional compounds
SMILES	VACV mCherry inh	VACV Venus inh
CCOc1ccccc1NC(=O)CSc1c(C)cnc2c1c(=O)n(C)c(=O)n2C	-11.8%	-14.3%
COc1ccc(S(=O)(=O)NC(=O)C2(C)CCN2C(=O)C2CCCCC2)cc1OC (centres undefined)	16.4%	5.6%
CC(=O)Nc1ccc(C(=O)Nc2ccc3c(c2)N(C2CCCC2)C(=O)c2ccccc2S3)cc1	-19.4%	-13.0%
O=C(NC12CC3CC(CC(C3)C1)C2)c1ccc(COc2ccc(Cl)cc2[N+](=O)[O-])o1	.	-40.0%
NCCn1c(-c2ccccc2)cc(C(=O)O)c1-c1ccccc1F	i	-4.2%
O=C(COC(=O)c1ccc(Br)o1)Nc1cccc(S(=O)(=O)N2CCCCCC2)c1	-20.8%	-14.4%
CC(Sc1nnnn1C)C(=O)NC1CCCc2ccccc21 (centres undefined)	i	-13.0%
O=C(NC(=O)c1ccccc1Cl)Nc1ccc(OC(F)(F)F)cc1	-18.3%	-11.5%
